Screening data: PubChem, several laboratories
Bead autofluor: compound fluorescence in toxin protease inhibitor counterscreen. compound autofluorescence counterscreen, microsphere flow cytometry; stronger effect = higher value. fluorescence intensity (test concentration not listed). 3.1% of 360,000 active;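 active means at least 3 SD above the mean of all compounds, about 16000 in these data; inconclusive means too few beads counted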;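 further: 100 nL of 1 mM stock went into each well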
ugtP null kill: growth inhibition of S. aureus ugtP deletion strain. 0.54% of 330,000 active. growth inhibition, % (concentration not given with the values). S. aureus RN4220 ugtP deletion, OD600 growth, 16 h; some inactives read as strong as hits. AID 1259309;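 active means z-score under -3 and OD600 up to 0.15 on both plates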;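 further: plate controls were untreated wells for no effect and antibiotic for full effect; wells of about 80 µL received 100 nL stock; the first replicate is given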
RN4220 kill: S. aureus RN4220 growth inhibition | OD600, 16 h | inhibition, % (concentration not given with the values) | 0.33% of 330,000 active;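 active means z-score of -3 or lower and OD600 up to 0.18 on both plates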;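 further: plate controls were untreated cells for no effect and reference antibiotic for full effect; stock transfer was 100 nL into about 80 µL; one replicate is shown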
Mtb hypoxia rep: reduces hypoxia-regulated biosensor signal in M. tuberculosis | fluorescence inhibition, % (no concentration beside the values) | M. tuberculosis hypoxia-regulated fluorescent reporter, fluorescence | AID 1159583 | 0.1% of 300,000 active;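 active means 35 to 45% if threefold the growth effect, above 45% if 1.5-fold the growth effect; inactive means the rest, general growth blockers included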;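 further: wells of about 50 µL received 100 nL stock; 0% = vehicle wells and 100% = reference inhibitor wells; whole bacteria with a GFP reporter of the hypoxia response; strong numbers were not always called active; many hits fall short of the cut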
BJeLR lethal: kills HRASV12-expressing BJeLR cells; AID 1554; 0.17% of 300,000 active; inhibition, % (concentration not given with the values); BJeLR (HRASV12) viability, CellTiter-Glo ATP luminescence, 48 h; reference of the scale not given here;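 active means replicate mean above 50%; inconclusive means above 50% but judged a plate artefact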;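 further: 50 nL library stock added to about 25 µL; numbers are from one replicate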
PrP 5UTR inh: inhibition of PrP 5' UTR reporter expression; inhibition, % (concentration not given with the values); cell-based PrP 5' UTR mRNA reporter, plate reader; AID 488862; 0.35% of 340,000 active;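 active means every replicate at 50% or more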;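 further: 0 = median of the neutral control wells; tested in H4 reporter cells; numbers are from one replicate; inactives centre near -14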
Mtb hypoxia rep growth: also measured in Mtb hypoxia rep; calls as there; growth inhibition, %; measured here: M. tuberculosis growth (absorbance);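 0% = vehicle and 100% = reference antibiotic; read after six days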
Numbers without * were called inactive; ? = inconclusive; · = not tested or not shown. Compounds as they come; overall some 4% were active at least once.

1: CCOC(=O)c1[nH]c(Cc2[nH]c(C(=O)OCC)c(C)c2CCC(=O)OC)c(CCC(=O)OC)c1C
2: Cc1cc(C)cc(OCC(=O)Nc2cc(NC(=O)COc3cc(C)cc(C)c3)cc(C(=O)O)c2)c1
3: S=c1[nH]nc(C2CCCCC2)o1
4: Nc1cccc2cc(-c3ccccc3)oc12
5: COc1ccc(S(=O)(=O)Nc2ccc(N3CCOCC3)cc2)cc1[N+](=O)[O-]
6: Cc1cccn2c1nc(=S)n2C(=O)c1ccco1

Screen / compound no.	1	2	3	4	5	6
Bead autofluor	?	3789	3582	4417	2675	2789
ugtP null kill	-7.8	-11.9	2.8	-3.3	-4.2	5.9
RN4220 kill	-3.2	4.3	4.7	8.6	-0.4	2.2
Mtb hypoxia rep	1.9	6.6	11.9	7.0	-3.5	1.9
Mtb hypoxia rep growth	-0.6	1.3	1.1	1.6	7.2	-2.6
BJeLR lethal	-15.0	-3.1	0.3	·	7.2	-1.9
PrP 5UTR inh	-13.9	-5.6	-8.7	-56.0	-31.7	-159.4

7: CN(CC(=O)Nc1ccccc1Br)C(=O)CN1CCN(Cc2ccc(Cl)cc2)CC1
8: CC(C)(C)c1ccc(S(=O)(=O)N2C=CC(C(F)(F)F)=NCC2)cc1
9: COc1cc(C=O)ccc1OC(=O)c1ccc(C(C)C)cc1
10: CN(C(=O)c1ccco1)c1nc(-c2ccccc2)cs1
11: O=C(CCN1CCCCC1)NCC(=O)Nc1ccc(Br)cc1C(=O)c1ccccc1
12: O=C(/C=C/c1ccc(Cl)cc1)Nc1ccc(CN2CCOCC2)cc1

Screen / compound no.	7	8	9	10	11	12
Bead autofluor	3965	2337	3476	3316	10441	2480
ugtP null kill	3.6	12.5	-5.6	·	2.9	10.6
RN4220 kill	4.1	4.3	52.9	·	2.3	3.1
Mtb hypoxia rep	15.2	·	-7.0	·	10.6	2.4
Mtb hypoxia rep growth	9.5	·	2.4	·	12.0	4.6
BJeLR lethal	·	-1.0	42.9	-4.0	4.6	1.1
PrP 5UTR inh	-10.8	-13.8	0.3	-69.2	-35.0	-38.5

13: COc1ccc(-n2ccnc2)cc1
14: CN(C)C(CNC(=O)c1ccc(NS(=O)(=O)c2ccc3[nH]c(=O)[nH]c3c2)cc1)c1ccccc1 (configuration not stated)
15: Cc1ccnc(Sc2nc3c(c(=O)[nH]c(=O)n3C)n2CCCc2ccccc2)n1
16: COC(=O)c1ccc(N=NN2CCCCCC2)cc1
17: CC(=O)NC(c1ccc(C)cc1)c1cc([N+](=O)[O-])c2cccnc2c1O (configuration not stated)
18: CN(C)S(=O)(=O)Oc1cccc(C(=O)Nc2cccc(Cl)c2)c1

Screen / compound no.	13	14	15	16	17	18
Bead autofluor	4481	6733	3779	2024	2467	10308
ugtP null kill	-0.7	·	-3.6	69.2	64.1	1.8
RN4220 kill	2.1	·	8.2	12.1	64.2	3.1
Mtb hypoxia rep	2.3	·	1.1	2.0	-3.3	9.3
Mtb hypoxia rep growth	0.0	·	2.3	-6.2	3.6	11.8
BJeLR lethal	2.1	-12.2	-10.9	0.2	14.6	11.9
PrP 5UTR inh	-21.6	-4.5	-11.7	-8.5	-23.1	-47.8

19: CC(=O)Nc1ccc(NC(=O)C(C)Sc2n[nH]c(-c3cccs3)n2)cc1 (configuration not stated)
20: CCCCc1cc(-c2n[nH]c(=S)o2)c2ccccc2n1
21: CC(=O)NC(c1ccc(C(C)C)cc1)c1c(O)ccc2ccccc12 (configuration not stated)
22: Cc1cccc(N2C(=O)NC(=O)/C(=C\c3ccc(N4CCOCC4)cc3)C2=O)c1
23: CN(C)c1ccc(C(=O)OCC(=O)NCCC2=CCCCC2)cc1
24: COc1ccccc1C(=O)Nc1ccc(Br)cc1C

Screen / compound no.	19	20	21	22	23	24
Bead autofluor	·	3976	4114	4107	4753	3661
ugtP null kill	-3.5	44.8	7.8	6.7	14.8	-0.5
RN4220 kill	-0.2	64.2	25.1	2.4	8.9	-7.0
Mtb hypoxia rep	-5.0	16.3	8.5	7.0	12.9	12.3
Mtb hypoxia rep growth	-3.6	1.8	6.9	9.2	0.2	15.4
BJeLR lethal	·	2.2	-5.5	-5.9	4.2	-1.8
PrP 5UTR inh	-2.8	-12.5	·	-22.2	-21.4	-13.8

25: O=C(CN1CCCC1c1cccs1)Nc1cc(S(=O)(=O)N2CCCCC2)ccc1Cl (configuration not stated)
26: O=C(Cc1ccc(S(=O)(=O)N2CCOCC2)s1)Nc1cc(C(F)(F)F)cc(C(F)(F)F)c1
27: Cc1sc(NC(=O)CN(Cc2ccc(F)cc2)C(=O)C(C)(C)C)c(C(N)=O)c1C
28: CCN1CCN(C(CNS(=O)(=O)c2ccc(OC)c(C)c2)c2cccnc2)CC1 (configuration not stated)
29: O=C(Nc1ccc(S(=O)(=O)Nc2ccccc2F)cc1)N1CCCCC1
30: CN(C)S(=O)(=O)c1ccc(N2CCCC2)c(C(=O)NCC(=O)Nc2ccc(F)c(F)c2)c1

Screen / compound no.	25	26	27	28	29	30
Bead autofluor	?	2754	2217	7024	6059	?
ugtP null kill	1.7	-34.9	-5.3	-2.0	4.3	6.4
RN4220 kill	-2.5	-9.0	-0.9	1.3	4.1	6.2
Mtb hypoxia rep	7.5	21.6	-2.4	2.5	-1.1	5.2
Mtb hypoxia rep growth	-1.3	-3.1	-6.1	0.0	4.4	3.4
BJeLR lethal	·	·	-7.0	-2.5	-20.2	·
PrP 5UTR inh	·	-23.8	-11.2	-19.3	-8.4	-7.3

Full records, quoted from the list:
Cc1sc(NC(=O)CN(Cc2ccc(F)cc2)C(=O)C(C)(C)C)c(C(N)=O)c1C reads Bead autofluor = 2217; ugtP null kill = -5.3; RN4220 kill = -0.9; Mtb hypoxia rep = -2.4; Mtb hypoxia rep growth = -6.1; BJeLR lethal = -7.0; PrP 5UTR inh = -11.2
O=C(Nc1ccc(S(=O)(=O)Nc2ccccc2F)cc1)N1CCCCC1 reads Bead autofluor = 6059; ugtP null kill = 4.3; RN4220 kill = 4.1; Mtb hypoxia rep = -1.1; Mtb hypoxia rep growth = 4.4; BJeLR lethal = -20.2; PrP 5UTR inh = -8.4

Going on with the list.
31: Cc1ccc(S(=O)(=O)NN2Cc3ccccc3C2=N)cc1
32: CCS(=O)(=O)c1nc(S(=O)(=O)c2ccc(C)cc2)c(N2CC(C)CC(C)C2)s1 (configuration not stated)
33: O=C(Cn1c(=O)sc2ccccc21)Nc1ccccc1C(=O)O
34: C=CC1c2ccccc2N(S(=O)(=O)c2ccc(C)cc2)C(c2ccc(C(F)(F)F)cc2)C1(C#N)C#N (configuration not stated)
35: CC(Oc1ccc(Cl)cc1)C(=O)Nc1nccs1 (configuration not stated)
36: CC1Cc2ccccc2N1S(=O)(=O)c1cccc(C(=O)OCC(=O)N2CCOCC2)c1 (configuration not stated)

Screen / compound no.	31	32	33	34	35	36
Bead autofluor	5080	5696	4781	·	3832	3513
ugtP null kill	-4.9	-2.8	4.1	-17.9	5.5	-0.9
RN4220 kill	-5.1	-4.1	3.8	4.4	1.8	7.9
Mtb hypoxia rep	-4.3	-4.7	·	-4.0	15.3	6.1
Mtb hypoxia rep growth	-10.5	7.6	·	0.0	18.1	7.5
BJeLR lethal	-2.1	-0.1	11.8	·	0.2	·
PrP 5UTR inh	-17.0	4.2	-4.4	·	-6.5	-12.0

37: COc1ccc(CNC(=O)CNC(=O)c2sc3ccccc3c2Cl)cc1OC
38: c1ccc(CSc2nnc(-c3ccccn3)n2-c2ccccc2)cc1
39: COc1ccc(CNCc2ccc(C)cc2)c(OC)c1
40: CCCCNC(=O)Nc1ccnn1C1CCCCC1
41: Cc1ccccc1Nc1nnc(SCC(=O)Nc2ncc(C(F)(F)F)cc2Cl)s1
42: COc1ccc(OC)c(/C=C/C(=O)c2ccc(Cl)cc2)c1

Screen / compound no.	37	38	39	40	41	42
Bead autofluor	6425	3222	3251	3100	1928	11289
ugtP null kill	-1.6	1.1	10.9	-1.2	-12.8	10.9
RN4220 kill	-0.6	4.0	10.9	2.4	10.8	9.8
Mtb hypoxia rep	-4.3	·	12.5	7.5	6.1	19.2
Mtb hypoxia rep growth	1.0	·	4.2	9.2	7.9	24.2
BJeLR lethal	1.8	12.2	-3.2	8.0	-1.9	5.0
PrP 5UTR inh	-22.0	-19.6	-35.0	-14.5	-16.5	-47.1

43: CN(C(=O)COc1ccc2c(-c3ccccc3)cc(=O)oc2c1)C1CCS(=O)(=O)C1 (configuration not stated)
44: COc1cc2oc(=O)ccc2c(OC)c1CC(O)C(C)(C)O (configuration not stated)
45: CCOc1cccc(C(=O)NC(c2ccccc2)C(C)C)c1 (configuration not stated)
46: COc1ccc(C(=O)N/C(=C\c2ccccc2)C(=O)Nc2ccc(C(=O)NCC(=O)O)cc2)cc1
47: CCCNC(=O)c1c(NC(=O)C2COc3ccccc3O2)sc2c1CCCC2 (configuration not stated)
48: COC(=O)C1CCN(C(=O)CN2C(=O)NC3(CCC(C)CC3)C2=O)CC1 (configuration not stated)

Screen / compound no.	43	44	45	46	47	48
Bead autofluor	5082	3657	3337	3346	3332	3071
ugtP null kill	7.9	-0.2	0.4	1.4	-0.6	-0.1
RN4220 kill	-0.7	0.5	-2.4	-1.2	9.8	0.7
Mtb hypoxia rep	7.6	-0.2	-10.0	8.8	0.9	3.5
Mtb hypoxia rep growth	-7.4	-4.3	-6.8	4.2	-7.3	6.6
BJeLR lethal	-23.1	-9.1	4.2	-4.7	9.4	·
PrP 5UTR inh	-6.1	-31.4	-11.8	9.4	-17.4	-16.3

49: Clc1ccc(/C=C\c2nccc3c2[nH]c2ccccc23)cc1
50: CC1(O)CC(c2ccc(Cl)cc2)=NN1C(=O)c1ccc([N+](=O)[O-])cc1 (configuration not stated)
51: Cc1ccc(NS(=O)(=O)c2c(C)[nH]c(=O)[nH]c2=O)c(C)c1
52: COc1ccccc1Nc1nc(-c2sc(NC(=O)c3ccco3)nc2C)cs1
53: c1ccc2c(OCCCCN3CCOCC3)cccc2c1
54: CCc1nccn1CCC(=O)N1CCCC(Nc2ccc(C(C)C)cc2)C1 (configuration not stated)

Screen / compound no.	49	50	51	52	53	54
Bead autofluor	5871	3354	3964	3885	3072	·
ugtP null kill	3.7	97.8*	1.9	4.6	0.9	0.0
RN4220 kill	2.8	98.9*	2.9	21.1	3.8	-0.1
Mtb hypoxia rep	12.0	8.2	-0.7	10.4	6.8	14.3
Mtb hypoxia rep growth	3.9	8.2	3.2	9.4	-2.0	-25.8
BJeLR lethal	8.2	18.1	3.5	2.4	16.0	7.4
PrP 5UTR inh	-20.0	-6.5	-28.0	1.7	-20.9	-8.1

55: CC(C)(CNC(=O)CC1C(=O)NCCN1Cc1cccc(F)c1F)N1CCOCC1 (configuration not stated)
56: COc1ccc(CC(=O)Nc2c(C(=O)N3CCN(c4ncccn4)CC3)oc3ccccc23)cc1OC
57: CCN(C(=O)COC(=O)/C=C/c1c(C)nn(-c2ccccc2)c1C)c1c(N)n(Cc2ccccc2)c(=O)[nH]c1=O
58: CCCN(CCO)C1CCN(CCc2ccccc2)CC1
59: COc1ccc(Br)cc1CNC(=O)CN1C(=O)C(c2ccccc2)Oc2cccnc21 (configuration not stated)
60: COc1ccc(-c2csc(N(CCCN(C)C)C(=O)c3ccc(F)cc3)n2)cc1

Screen / compound no.	55	56	57	58	59	60
Bead autofluor	5443	5592	2976	5394	5659	4044
ugtP null kill	4.6	6.4	6.6	1.7	7.6	5.2
RN4220 kill	1.8	2.5	0.8	0.9	-2.5	-1.2
Mtb hypoxia rep	6.2	16.4	9.3	3.8	1.9	5.2
Mtb hypoxia rep growth	-2.7	2.4	1.5	7.0	-3.2	4.7
BJeLR lethal	-1.0	-11.7	·	-2.3	-14.3	-2.2
PrP 5UTR inh	-16.0	-10.2	-0.7	2.6	-20.8	-13.9

61: CCC(Sc1ccc2nnc(CCNS(=O)(=O)c3ccc(OC)cc3)n2n1)C(=O)OC (configuration not stated)
62: Cc1cccc(C(=O)OCc2cncs2)c1
63: CCOC(=O)c1c(-c2cccs2)csc1NC(=O)c1ccncc1
64: NC(N)=NCCCC(NC(=O)c1ccccc1)C(=O)Nc1ccc([N+](=O)[O-])cc1 (configuration not stated)

Screen / compound no.	61	62	63	64
Bead autofluor	4278	4311	4274	5565
ugtP null kill	1.2	-6.9	-7.2	11.4
RN4220 kill	6.8	-3.9	3.5	1.8
Mtb hypoxia rep	14.6	-5.4	8.0	9.2
Mtb hypoxia rep growth	12.5	0.7	2.0	7.7
BJeLR lethal	-3.4	-5.7	3.5	-9.9
PrP 5UTR inh	-23.9	-24.7	-19.1	-11.2
